Mtb growth – Mycobacterium tuberculosis H37Rv growth inhibition, cell based, confirmatory dose response (AID 1949); most inactive calls were filed without a number and no value below 0 was filed; inhibition, % at 10 µg/mL, or IC50 in µg/mL where a hit was titrated; 100,000 compounds, 1.6% hits;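 active = confirmed in a dose series; inconclusive = about 50% or more but not retested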;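 note: bacteria grown 7 days with compound before Alamar blue readout; 0% = untreated bacteria and 100% = reference antibiotic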
Active calls of the source: *; i = inactive; ? = inconclusive. The list is partial; rates above refer to the full screens.

| mol | Mtb growth |
| --- | --- |
| O=C(COc1ccc2ccccc2c1)N1CCN(C(=O)c2ccc(F)cc2)CC1 | 1% |
| COc1ccc(Cl)cc1NC(=S)NC(=O)c1ccc(C(C)C)cc1 | 0% |
| C=CCc1cccc2cc(C(=O)NC3CCCC3)c(=O)oc12 | ? |
| O=C(CNC(=O)C1CCCCC1)Nc1nc(C23CC4CC(CC(C4)C2)C3)cs1 | i |
| COc1ccc(NC(=O)C(c2ccccc2)c2ccccc2)cc1OC | i |
| CCOc1ccccc1NS(=O)(=O)c1ccc2c3c(cccc13)C(=O)N2 | 3% |
| CCCCOc1cccc(C(=O)NC(=S)Nc2ccc(OC)cc2[N+](=O)[O-])c1 | 17% |
| O=C(CSCc1ccccc1)Nc1ccc(NC(=O)c2cccs2)cc1 | i |
| CC1=C(C(=O)OC(C)C)C(c2ccncc2)n2ncnc2N1 (stereo unspecified) | i |
| CCOC(=O)c1c(-c2ccc(OC)cc2)csc1NC(=O)c1ccccc1F | i |
| Cc1cccc(NC(=O)CN(C2CCCCC2)S(=O)(=O)c2ccc(F)cc2)c1 | 0% |
| COc1ccc(OC)c(C(C)NC(=O)Nc2ccc(F)cc2F)c1 (stereo unspecified) | i |

Of the compounds above, these have fluorine.
| mol | Mtb growth |
| --- | --- |
| O=C(COc1ccc2ccccc2c1)N1CCN(C(=O)c2ccc(F)cc2)CC1 | 1% |
| CCOC(=O)c1c(-c2ccc(OC)cc2)csc1NC(=O)c1ccccc1F | i |
| Cc1cccc(NC(=O)CN(C2CCCCC2)S(=O)(=O)c2ccc(F)cc2)c1 | 0% |
| COc1ccc(OC)c(C(C)NC(=O)Nc2ccc(F)cc2F)c1 (stereo unspecified) | i |

New compounds follow.
| mol | Mtb growth |
| --- | --- |
| COc1ccc(-c2oc3ncn4nc(COc5ccccc5C)nc4c3c2-c2ccc(OC)cc2)cc1 | i |
| COc1ccc(S(=O)(=O)N2CCC(C(=O)NCCC3=CCCCC3)CC2)cc1OC | i |
| COc1ccc(NC(=O)Nc2ccc(OC(F)(F)F)cc2)c(OC)c1 | 1% |
| Nc1c(C(=O)Nc2ccc([N+](=O)[O-])cc2)sc2nc(-c3cccs3)cc(C(F)(F)F)c12 | i |
| COc1ccc(-c2csc3ncn(C(C)C(=O)OC4CCCCC4)c(=O)c23)cc1 (stereo unspecified) | 11µg/mL* |
| S=C(Nc1ccc(Br)cc1)NC1CCCCC1 | 3% |
| CC(=O)c1cccc(NC(=O)COc2ccccc2Br)c1 | i |
| CC(=O)Nc1ccc(NC(=O)C2(c3ccccc3)CCCC2)c2ccccc12 | i |
| Cc1ccc(C(=O)Nc2sc3c(c2C#N)C(C)(C)OC3(C)C)cc1 | 0% |
| O=C(NCCN1CCOCC1)c1cc(-c2ccc(Cl)cc2Cl)nc2ccccc12 | i |
| CCN(CC(=O)NC(C)(C)C)S(=O)(=O)c1ccc2ccccc2c1 | i |
| O=C(CC1Nc2ccccc2NC1=O)Nc1ccc(OC(F)(F)C(F)Cl)cc1 (stereo unspecified) | 11% |
| O=C1NC(=O)C(C2CCCCC2)C(=O)N1 | i |
| Cn1cccc1-c1nc2ccc(N)cc2[nH]1 | i |
| Cc1cc(C)c(S(=O)(=O)N(C)CC(=O)Nc2cccc(Br)c2)c(C)c1 | i |
| O=C(CSc1ccccc1[N+](=O)[O-])Oc1ccc(Cl)cc1Cl | i |
| CCCCOc1ccc(C(=O)Nc2sc3c(c2C(=O)NC)CCCC3)cc1 | i |
| CS(=O)(=O)N1CCN(c2ccccc2N)CC1 | i |
| Cc1nc(N2CCC(C)CC2)nc(N2CCN(C)CC2)c1[N+](=O)[O-] | i |
| COc1ccc2cc(Br)ccc2c1COC(C)C | i |
| O=C(CNCCN1CCOCC1)Nc1sc2c(c1C(=O)Nc1ccccc1Cl)CCC2 | i |
| CCC(C)NC(=O)C(=O)NCc1ccc(F)cc1 (stereo unspecified) | i |
| CCOC(=O)c1ccc(N2C(=O)CC(N3CCC(O)(c4ccc(Cl)cc4)CC3)C2=O)cc1 (stereo unspecified) | i |
| O=C(c1ccc2c(c1)C1C3CCC(C3)C1C(c1ccccc1)N2)N1CCOCC1 (stereo unspecified) | i |

Single entries from the results shown:
For Mtb growth, S=C(Nc1ccc(Br)cc1)NC1CCCCC1 shows 3%
For Mtb growth, COc1ccc(NC(=O)Nc2ccc(OC(F)(F)F)cc2)c(OC)c1 shows 1%

Other records follow:
| mol | Mtb growth |
| --- | --- |
| CCOc1ccccc1NC(=O)COc1ccc2ccc(=O)oc2c1 | i |
| COC(=O)C(O)(c1ccc(N(C)S(=O)(=O)c2ccccc2)cc1)C(F)(F)F (stereo unspecified) | 1% |
| CCCCC(=O)Nc1cc(NC(=O)CCCC)cc(C(=O)O)c1 | i |
| O=C(Nc1ccc(C(=O)N2CCCC2)cc1)c1ccccc1Br | i |
| CN(CC(=O)O)C(=O)Nc1ccc(Cl)cc1Cl | i |
| Fc1cccc(CN2CCN(C(=S)NCc3ccco3)CC2)c1 | i |
| CCOC(=O)c1c(NC(=O)c2cccc(C)c2)sc(C(=O)OC)c1C | i |
| CCS(=O)(=O)NCc1ccc(Cl)c(Cl)c1 | i |
| COc1ccc([N+](=O)[O-])cc1NC(=O)C(Cc1ccccc1)N1C(=O)c2ccccc2C1=O (stereo unspecified) | i |
| COc1ccc(NC(=O)c2c(NC(=O)CNCc3cccnc3)sc3c2CCC3)cc1 | i |
| COC(=O)c1cccc(-n2c(CCC(=O)O)ccc2-c2ccc(Br)cc2)c1 | i |
| Cc1ccc(-c2nn(C)c(=O)c3ccccc23)cc1S(=O)(=O)NC(C)c1ccccc1 (stereo unspecified) | i |
| CCN(CC)S(=O)(=O)c1ccc(OC)c(NC(=O)c2cccc(NC(=O)C(C)C)c2)c1 | i |
| CCC(C)c1ccccc1OCCCCNCCCOC (stereo unspecified) | 4% |
| S=C(NCc1cn(-c2ccccc2)nc1-c1ccccc1)Nc1ccc(Br)cc1Cl | 1% |
| O=[N+]([O-])c1ccc(CS(=O)c2nc(C(F)(F)F)cc(C(F)(F)F)n2)cc1 (stereo unspecified) | 1% |
| Cc1c(NC(=O)Nc2ccc3c(c2)OCCO3)n(C)c(=O)n1-c1ccccc1 | 0% |
| O=C(NCc1ccncc1)c1cnccn1 | i |
| CCc1ccc(NC(=S)Nc2ccccc2F)cc1 | 12% |
| CCN(CC)S(=O)(=O)c1ccc(NC(=O)COc2ccc(Cl)c(C)c2)cc1 | i |
| CC(=O)NC1C(=O)Nc2c1cccc2C(F)(F)F (stereo unspecified) | 2% |
| COC(=O)CSc1nnc(-c2ccccc2C)o1 | 4.4µg/mL* |
| CC(=O)Nc1ccc(NC(=O)C2CCN(C(=O)c3cccs3)CC2)cc1 | 2% |
| CC(=O)C1=NN(c2ccccc2C)C2(S1)SC(C(C)=O)=C(C)N2c1ccccc1 (stereo unspecified) | i |

Next section; it opens with the 2 that closed the last part.
| mol | Mtb growth |
| --- | --- |
| CC(=O)Nc1ccc(NC(=O)C2CCN(C(=O)c3cccs3)CC2)cc1 | 2% |
| CC(=O)C1=NN(c2ccccc2C)C2(S1)SC(C(C)=O)=C(C)N2c1ccccc1 (stereo unspecified) | i |
| Cn1nnc(NC(=O)CSc2ccc(Cl)cc2)n1 | i |
| COc1cc([N+](=O)[O-])ccc1NC(=O)C(C)Oc1ccc(C(C)(C)C)cc1 (stereo unspecified) | i |
| O=C(c1c(F)cccc1F)N1CCN(c2ccccn2)CC1 | i |
| S=C(NCCn1cc(Cl)cn1)Nc1cccc(Cl)c1Cl | i |
| O=C(NCc1ccccc1Cl)C1CCCO1 (stereo unspecified) | i |
| CCC(C)N1CCN(C(=O)c2cccc(Cl)c2)CC1 (stereo unspecified) | 0% |
| CCC(=O)Nc1ccc(-c2nnc(SCC(=O)Nc3ccc(C(C)=O)cc3)n2C)cc1 | 2% |
| N#CCC(=O)N1CCN(CCc2ccccc2)CC1 | i |
| CCOC(=O)c1ccc(NC(=S)N2CCC(c3nc4ccccc4[nH]3)CC2)cc1 | i |
| O=C(Cc1ccc(Cl)cc1)Nc1nc(-c2ccccc2)cs1 | 2% |
| O=C(CCc1ccccc1)Nc1ccccc1Oc1ccccc1 | i |
| CS(=O)(=O)N(CC(=O)Nc1ccccc1Cl)c1cccc([N+](=O)[O-])c1 | i |
| O=C(Oc1ccc(-c2ccccc2)cc1)C1CC(=O)N(Cc2ccccc2)C1 (stereo unspecified) | i |
| CC(=O)NCCc1c(C)n(Cc2ccccc2)c2ccccc12 | i |
| Cc1ccccc1NC(=S)Nc1ccc(N(C)C)cc1 | 1% |
| CC(C)OC(=O)c1cccc(NC(=O)CSc2nnc(N)s2)c1 | i |
| Cc1cccc(Cn2nc([N+](=O)[O-])cc2C)c1 | 1% |
| Nc1ccc2nc(SCC(=O)Nc3ccc4c5c(cccc35)CC4)sc2c1 | i |
| O=[N+]([O-])c1ccccc1OCCCOc1cccc2cccnc12 | 13% |
| CCC(=O)Nc1ccccc1NC(C)=O | i |
| O=C(CCCc1ccccc1)Nc1nnc(C(F)(F)F)s1 | i |
| COc1cc2c(cc1OC)C(c1cccc(C)c1)CC(=O)N2 (stereo unspecified) | i |
| S=c1[nH]c2cc(Cl)ccc2n1Cc1ccccc1 | i |
| Cc1ccc(S(=O)(=O)n2cc(-c3ccc(Cl)cc3)c(N)n2)cc1F | i |
| CCSc1ccccc1C(=O)Nc1ccc(C(=O)OC)cc1 | i |
| Cc1ccccc1OCCCC(=O)Nc1ccc2c(c1)OCO2 | i |
| COc1cccc(-n2nnnc2SCC(=O)NCc2cccs2)c1 | i |
| Cc1ccc(C(=O)Nc2nnc(-c3ccncc3)s2)o1 | i |
| Cc1ccc(S(=O)(=O)CC(=O)N2CCOCC2)cc1 | i |
| COc1ccc(CC(=O)NC2CCCCCC2)cc1OC | i |
| CCCCNC(=O)c1ccccc1NS(=O)(=O)c1cccs1 | i |
| Cc1cc(I)ccc1NC(=O)CSCc1ccc(Cl)cc1 | i |
| Cc1ccc(-c2cc(C(=O)NCCCn3ccnc3)c3ccccc3n2)o1 | 12% |
| COc1cc2ccccc2cc1C(=O)NC(=S)Nc1nc(-c2ccc(Cl)cc2)cs1 | 0% |
| O=C(CN1C(=O)c2ccccc2C1=O)OCc1ccccc1Cl | i |
| CC1=C(C(=O)OCc2ccccc2)C(/C=C/c2ccccc2)NC(=S)N1 (stereo unspecified) | ? |
| CCc1ccc(NC(=O)CSc2nnc(-c3ccco3)n2C)cc1 | i |
| N/C(=N\OC(=O)COc1cc(Cl)c(Cl)cc1Cl)c1ccccn1 | i |
| CCc1c(C)sc(NC(=O)OC)c1C(=O)NCc1ccccc1 | i |
| N#CSCC(=O)N1c2ccccc2CCc2ccccc21 | i |
| Cc1ccc2nc(NC(=O)C(C)(C)Oc3ccc(Cl)cc3)sc2c1 | 36% |
| CCOc1ccc(NC(=S)N(Cc2ccc(Cl)cc2)Cc2ccco2)cc1 | i |
| O=C(CSc1nnc(-c2ccncc2)n1-c1ccc(Br)cc1)Nc1ccc2c(c1)OCCO2 | i |
| COc1ccc(CCN2C(=O)CC(Cc3cccc(C)c3)C2=O)cc1OC (stereo unspecified) | 0% |
| COc1ccc(NC(=O)c2ccc(C)c(I)c2)cc1 | i |
| COc1ccccc1OCC(=O)Nc1ccc(-c2nnc(-c3ccco3)o2)cc1 | i |
| O=C(Nc1cccc(N2CCCC2)c1)c1cccs1 | 12% |
| Cc1ccc(C)c(NC(=O)CC2C(=O)N(c3ccccc3)C(=S)N2Cc2ccco2)c1 (stereo unspecified) | i |
| CCC(C)Cn1c(C(C)O)nc2ccccc21 (stereo unspecified) | i |
| CSc1cccc(NC(=O)CSc2ccc(Br)cc2)c1 | 32% |
| COc1ccc(Cc2nnc(NC(=O)COc3ccc(Cl)cc3)s2)cc1 | 1% |
| C=CCNC(=O)c1cc(Cl)ccc1NC(=O)c1ccc(Cl)cc1Cl | 22% |
| O=C(NC(=S)N1CCN(CCN2C(=O)c3cccc4cccc(c34)C2=O)CC1)c1ccc2c(c1)OCO2 | 16% |
| O=C(COc1ccccc1)Nc1ccc(-c2nc3ncccc3o2)cc1 | i |
| CCN(CC)S(=O)(=O)Cc1ccc([N+](=O)[O-])cc1 | i |
| COc1cc(Br)ccc1NS(=O)(=O)c1ccccc1 | 0% |
| Cc1cc([N+](=O)[O-])ccc1N1CCN(C(=O)c2ccc(Cl)cc2)CC1 | 3% |
| CC(Sc1nc(N)cc(N)n1)C(=O)Nc1ccc(Cl)cc1 (stereo unspecified) | 1% |
| Cc1cc(C)c(C)c(S(=O)(=O)N2CCN(c3ncnc4sc(C)c(C)c34)CC2)c1C | i |
| COC(=O)c1ccc(CSc2nnc(-c3ccc(OC)cc3)o2)cc1 | i |

Other compounds follow:
| mol | Mtb growth |
| --- | --- |
| CCC(=O)Nc1ccc(-c2nc3c(C)cccc3c(=O)o2)cc1 | 25% |
| O=C(COc1ccc(-c2ccccc2)cc1)N1CCc2ccccc21 | i |
| CCCC(=O)Nc1ccc(C(=O)N2CCCc3ccccc32)cc1 | 7% |
| COc1cccc(OC)c1C(=O)Nc1ccc(CN2CCOCC2)cc1 | i |
| COc1cc(NC(=S)NCCCO)cc(OC)c1 | i |
| CC(=O)Oc1ccc2ccccc2c1C=O | 11% |
| O=C(CSc1nc2ccc(I)cc2c(=O)[nH]1)N1CCOCC1 | i |
| COC(=O)Nc1sc(C)c(-c2ccccc2)c1C(N)=O | 2% |
| COC(=O)CNC(=O)c1cccc(-c2ccc(OC)cc2)c1 | i |
| COc1cccc(CNC(=O)C(=O)Nc2cccc(OC)c2)c1 | i |
| COc1ccc(S(=O)(=O)N(CC(=O)Nc2ccc(Cl)cc2)c2cccc(Cl)c2)cc1 | i |
| O=C(NS(=O)(=O)c1ccc2ccccc2c1)C(Cl)Cl | i |
| COc1cc(C2c3c(oc4cc(C)c(C)cc4c3=O)C(=O)N2Cc2ccccc2)cc(Br)c1O (stereo unspecified) | 39% |
| COc1cc(C(=O)Nc2ccc3c(c2)ncn3-c2ccc(C)cc2)cc(OC)c1OC | i |
| Cc1cccc(NS(=O)(=O)c2ccc(Cl)s2)c1 | i |
| N#CCCn1cc(C(=O)NCc2ccccc2)c(-c2cccs2)n1 | i |
| CN1CCN(CCCn2cnc3c2c(=O)n(C)c(=O)n3C)CC1 | i |
| O=C1c2ccccc2NC2(C(=O)Nc3ccccc32)N1CCOc1ccccc1 (stereo unspecified) | i |

Source: PubChem
